High-throughput results: PubChem BioAssay, PCMD
Biofilm kill mix – clotrimazole potentiators killing C. albicans biofilm, primary screen, 4-compound mixtures; AID 1242, 2008; C. albicans biofilm persisters + clotrimazole, fluorescence viability; primary screen in compound mixtures of four per well; 120,000 tested, 0.02% active; inhibition, % at 7.6 µM;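 active = inhibition above 30.3% in the primary screen of four-compound pools, then above 30% when the compound was retested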;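 note: compounds exposed to preformed 24 h biofilms for 48 h; the number belongs to the whole pool; some results filed as inactive read as strong as hits; inactives centre near 12; 0% = biofilm with clotrimazole alone and 100% = kill control; retested singly at about 60 µM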
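Test system: C. albicans biofilms. Buffer or medium: RPMI/MOPS medium, pH 7.0. Timing: 48 h compound exposure at 37 °C. Technique: Alamar Blue fluorescence. Evaluation: percent inhibition of biofilm viability.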
Numbers without * were called inactive.

SMILES | Biofilm kill mix
CCn1c(COc2ccc(C)cc2)nnc1SCC(=O)NCc1ccco1 | 1
Cc1ccc(S(=O)(=O)N(CC2CO2)c2ccccc2[N+](=O)[O-])cc1 (centres undefined) | 29
CCOC(=O)Cn1nc(C)n(-c2cccc(Cl)c2)c1=O | -10
CC1CC(C)(C)NC(=S)N1CCC(=O)N1CCN(Cc2ccccc2)CC1 (centres undefined) | 23
O=C(COc1ccccc1F)Nc1cc(S(=O)(=O)N2CCOCC2)ccc1N1CCOCC1 | 3
COc1ccc(-n2nnnc2SC(C)C(=O)NCC(=O)Nc2ccc(F)c(F)c2F)cc1 (centres undefined) | 13
CC(=O)Nc1ccc2nc(NC(=O)CCc3ccccc3)sc2c1 | 9
CCN(CC)CCNC(=O)c1ccc2c(c1NCCO)C(=O)c1ccccc1C2=O | 19
CN1CCN(c2ccc(S(=O)(=O)N3CCCCC3)cc2NC(=O)c2ccc(F)cc2F)CC1 | 8
Nn1c(SCc2ccccc2)nnc1C1CCCCC1 | 25
CC(C)NCC(O)COc1ccc(CC(N)=O)cc1 (centres undefined) | 0
CC1=CC(C)(C)N(C(=O)CCl)c2cc(C)ccc21 | 6
O=C(Cn1c(=O)oc2ccccc21)Nc1nc(-c2ccc(Br)cc2)cs1 | 12
O=C1Nc2ccccc2N=C(c2ccccc2)c2ccccc21 | 17
CC(NCc1cccc(OCc2ccccc2)c1)C(O)c1ccccc1 (centres undefined) | 29
S=c1[nH]nc(Nc2cccc3ccccc23)s1 | 25
CCN1C(=O)C(c2ccc(O)cc2)(c2ccc(O)cc2)c2ccccc21 | 3
O=C(Cc1cc(=O)[nH][nH]1)N/N=C/c1c(F)cccc1Cl | 10
O=C(NCc1ccco1)c1cccc(NS(=O)(=O)c2ccccc2F)c1 | 10
CN(CCN1CCc2ccccc2C1)Cc1nc(-c2ccc3c(c2)OCO3)no1 | 8
CN1CCN(C2=Cc3ccccc3Sc3cc(F)c(Cl)cc32)CC1 | 3
CCn1c(O)c(/C=C2\C=Nc3ccccc32)sc1=O | 15
CNC(=S)N/N=C/C1=CCC2CC1C2(C)C (centres undefined) | 12
Cc1cc(C)c(S(=O)(=O)N2CCOCC2)cc1NS(=O)(=O)c1cc(OCC(N)=O)c(C)cc1Cl | 8
O=[N+]([O-])c1ccc2c(c1N1CCCCC1)=NC1(CCCCC1)[N+]=2[O-] | 16
The results go on.
SMILES | Biofilm kill mix
CCc1ccc(C2C(C#N)=C(N)Oc3n[nH]c(CC(=O)OC)c32)cc1 (centres undefined) | 8
O=c1c2c3nc4ccccc4nc3n(/N=C/c3ccncc3)c2ncn1-c1ccccc1 | 27
COc1ccc(SC[C@H](Cc2ccccc2)N2CCN(CCc3ccccc3)CCC2=O)cc1 | 22
CCN(CC)C(=O)N1CCN(S(=O)(=O)c2c(C)cc(C)cc2C)CC1 | 20
CC(C)c1ccccc1NC1=CC(=O)CC(C)(C)C1 | 0
Cc1cc(NC(=O)COC(=O)CCNS(=O)(=O)c2c(Cl)cccc2Cl)no1 | 11
COCCNC(=O)NC12CC3(C)CC(C)(CC(C)(C3)C1)C2 | 21
CC(=O)Nc1ccc(OS(=O)(=O)c2c(C)cc(C)cc2C)cc1 | 14
CCOC(=O)c1c(C)nc(C)c(C(=O)OCC)c1-c1cccc(N)c1 | 6
Cc1occc1C(=O)Nc1ccc(OCc2ccccc2)cc1 | 18
Cc1ccc[n+](-c2nc3ccccc3nc2[N-]S(=O)(=O)c2ccccc2)c1 | 12
Cc1cc(NC(=O)c2ccc3c(c2)OCCO3)ccc1NC(=O)c1cc2ccccc2o1 | 10
CCCCCCCCCn1c2c(c(=N)c3c1CCC3)CCC2 | 21
N/C(CC(=O)Nc1cc(C(F)(F)F)ccc1Cl)=N\O | -3
CC(=O)NN1C(=O)/C(=C\c2ccc(Cl)cc2)SC1=S | 6
Cc1ccc(-n2c(=S)[nH]c3[nH]ncc3c2=O)cc1 | 2
Cc1c(C(=O)NCCc2ccc(S(N)(=O)=O)cc2)cccc1[N+](=O)[O-] | 15
CCOC(=O)c1c(C)[nH]c2cc(Br)c(O)cc12 | 14
Fc1ccc(C2CCCN2Cc2nc(-c3cnccn3)no2)cc1 (centres undefined) | 24
CC(C)(C)c1ccc(Oc2ccc(NC(=O)C3CC=CCC3C(=O)O)cc2)cc1 (centres undefined) | 8
NC(=O)NC(=O)COC(=O)c1cccc(NS(=O)(=O)/C=C/c2ccccc2)c1 | 26
Cc1nc(C)c(Oc2ccc(Cl)cc2Cl)c(=O)[nH]1 | 21
CCn1c(O)c(/C=N/N=C/c2ccc(OC)cc2)c2cc(C3=NNC(=O)CC3)ccc21 | 12
S=C(NCCCN1CCOCC1)N1CCOCC1 | 9
COc1ccc2c(CC(=O)Nc3ccc(N4CCOCC4)cc3)coc2c1 | 9

Four entries from above, as labelled records.
CC(C)c1ccccc1NC1=CC(=O)CC(C)(C)C1
  Biofilm kill mix: 0
Cc1cc(NC(=O)COC(=O)CCNS(=O)(=O)c2c(Cl)cccc2Cl)no1
  Biofilm kill mix: 11
COCCNC(=O)NC12CC3(C)CC(C)(CC(C)(C3)C1)C2
  Biofilm kill mix: 21
CC(=O)Nc1ccc(OS(=O)(=O)c2c(C)cc(C)cc2C)cc1
  Biofilm kill mix: 14

The results go on:
SMILES | Biofilm kill mix
CN(C)n1cccc1/C=C(\C#N)S(=O)(=O)c1ccc(Cl)cc1 | 18
O=C(NCc1nc2ccccc2[nH]1)C1=C[C@H](C2CC2)C[C@H](OCCCCO)O1 | 18
O=C(Oc1ccccc1N1C(=O)C2CC=CCC2C1=O)c1ccc(Br)cc1 (centres undefined) | 7
O=c1[nH]c(N/N=C/c2ccccc2Br)nnc1-c1ccccc1 | 16
COc1ccc2[nH]c3c(=O)n(Cc4ccc(C(=O)N5CCCC5)cc4)c(=S)[nH]c3c2c1 | 16
CS(=O)Cc1cc(Oc2ccccc2)nc(-c2ccncc2)n1 (centres undefined) | 17
CCOC(=O)c1ccc(NC(=O)c2nc[nH]c2C(=O)N2CCN(c3ccccc3)CC2)cc1 | 13
Cc1nc(C(=O)NC2CCOCC2)sc1C1(C)CC(c2cccc([N+](=O)[O-])c2)=NO1 (centres undefined) | 16
CCCCCc1n[nH]c2c1CCCC2 | 16
CCCCCCCCNC(=O)c1cccnc1SCC(=O)Nc1ccc(OC)cc1OC | 15
CCOC(=O)COc1ccc(Br)cc1/C=C/c1[nH]c(=O)[nH]c(=O)c1[N+](=O)[O-] | 14
CC(C)OCCCN1C=C2C(=O)C(C)(OC(=O)CCc3ccccc3)C(=O)C=C2C=C1c1ccc(C#N)cc1 (centres undefined) | 17
Cc1ccc(N(Cc2cc3ccc(C)cc3[nH]c2=O)C(=O)c2cccs2)cc1 | 15
CCOC(=O)c1cc(C(C)=O)c(=O)[nH]c1C | 5
CC(=O)Oc1ccc(-c2cccc(C(=O)OCC(=O)N(C)c3ccccc3)c2)cc1 | -8
Cc1cc(C)c(C#N)c(SCc2ccccc2F)n1 | 3
COc1ccc(NC(=O)CN(Cc2ccccc2)Cc2ccccc2)cc1S(N)(=O)=O | 16
CCOC(=O)C1=C(c2ccccc2)NC(=O)N(C(C)=O)C1c1cccc([N+](=O)[O-])c1 (centres undefined) | 14
Cc1cc(C)c(S(=O)(=O)N2CCCCC2C(=O)O)c(C)c1 (centres undefined) | 2
COc1ccc(-c2cc(C(=O)OCC(=O)NC(C)C)c3ccccc3n2)cc1 | 15
CC1CCCCN1CC(=O)c1c(N)n(Cc2ccccc2)c(=O)n(C)c1=O (centres undefined) | 10
COc1ccc(N2C(=O)CSC23C(=O)Nc2ccccc23)cc1 (centres undefined) | 10
O=C(NCc1ccccc1)c1ccc2c(=O)[nH]c3c(C(=O)NCC4CCCO4)sc(=S)n3c2c1 (centres undefined) | 8
O=C(NC(=S)Nc1ccccc1[N+](=O)[O-])c1ccccc1 | 20
CS(=O)(=O)Cc1cc(N2CCCC2)nc(-c2ccccc2)n1 | -5

Retrieved one by one from the list above, four records:
SMILES | Biofilm kill mix
O=C(NCc1nc2ccccc2[nH]1)C1=C[C@H](C2CC2)C[C@H](OCCCCO)O1 | 18
Cc1ccc[n+](-c2nc3ccccc3nc2[N-]S(=O)(=O)c2ccccc2)c1 | 12
Cc1ccc(N(Cc2cc3ccc(C)cc3[nH]c2=O)C(=O)c2cccs2)cc1 | 15
CCCCCc1n[nH]c2c1CCCC2 | 16

(listing goes on)
SMILES | Biofilm kill mix
CSc1sc(C(=O)NNC(=O)c2ccc(Cl)cc2)c2c1C=CCC2 | 10
COc1ccccc1/C=N\N=C(\N)c1ccccn1 | 9
CCCCCCn1c(-c2cccs2)n[nH]c1=S | 16
Cc1ccc(-n2ncc3c(N4CCCC(C)C4)ncnc32)c(C)c1 (centres undefined) | 10
CCCCN1CN(Cc2ccccc2)CNC1=S | 13
O=C(N/N=C1/SCC(=O)N1Cc1ccco1)c1ccccc1F | 21
Cc1ccc(NC(=S)Nc2ccc(C(C)C)cc2)cc1S(=O)(=O)N1CCCCCC1 | 12
CN(C)C(=S)NC(=O)C12CC3CC(C)(CC(C)(C3)C1)C2 | 9
O=C(O)C1CCN(S(=O)(=O)c2ccc3c(c2)OCCCO3)CC1 | 14
Nc1c(C(=O)C2CC2)sc2nc3c(cc12)CCC3 | 2
CC(c1ccccc1F)n1cc(C(=O)NCCCc2nc3ccccc3[nH]2)nn1 (centres undefined) | 2
C[C@@H]1OC(Nc2ccc(N=Nc3ccccc3)cc2)[C@H](O)[C@H](O)[C@H]1O (some centres undefined) | 12
O=C1/C(=C/c2cccnc2)SC(=NCc2ccccc2)N1Cc1ccccc1 | 15
CCCCC1(C)OC(=O)C(=Cc2ccc(SC)cc2)C(=O)O1 (centres undefined) | 14
Cc1cc(C(C)(C)C)ccc1NC(=O)CC(C)(C)CC(=O)O | 10
Cc1ccc(NC(=O)COC(=O)C2(c3ccc(Cl)cc3)CCCC2)cc1 | 13
CSCCC(NC(=O)c1cccc(C)c1)C(=O)O (centres undefined) | 15
COc1ccc(-c2noc(CN(C)C3CCOCC3)n2)cc1 | 29
O=C(O)C1(P(=O)(c2ccccc2)c2ccccc2)CCCC1 | 9
Cc1nc2c3cc(F)ccc3n(CCN3CCCCC3)c2s1 | 19
CCCOC(=O)c1c(NC(=O)CCCn2nc([N+](=O)[O-])cc2C)sc(C(=O)OC)c1C | 1
CCn1cc(CN2CCc3c([nH]c4ccccc34)C2c2cccc(O)c2)c(C)n1 (centres undefined) | 16
Cc1nnc2ccc(-c3ccc(NC(=O)c4ccc(Cl)nc4)cc3)nn12 | 1
CCN(CC)CC#CCC(O)(c1ccccc1)C1CCCC1 (centres undefined) | 13
COc1cc(CN2CCN(C(C)C)C(CCO)C2)ccc1OCc1ccccc1 (centres undefined) | 29

Next part; it opens with the 2 that closed the last part.
SMILES | Biofilm kill mix
CCN(CC)CC#CCC(O)(c1ccccc1)C1CCCC1 (centres undefined) | 13
COc1cc(CN2CCN(C(C)C)C(CCO)C2)ccc1OCc1ccccc1 (centres undefined) | 29
Cc1cccc(N=C2NC(=O)/C(=C/c3cccnc3)S2)c1 | 26
COCC(=O)n1nc(-c2ccc(C)cc2)nc1NCc1ccc(F)cc1 | 20
Cc1ccc(NC(=O)CSc2nnc3ccccn23)cc1 | 13
O=C(c1ccc(Cl)c(S(=O)(=O)N2CCOCC2)c1)N1CCCCC1 | -2
O=C(/C=C/C(=O)N1CCc2ccccc2C1)N1CCc2ccccc2C1 | 18
O=C1CC(C(=O)Nc2cccc(Cl)c2)n2ncnc2N1 (centres undefined) | 14
O=C(NCCc1nnc2ccc(NCC3CCCO3)nn12)c1ccccc1 (centres undefined) | 21
CCn1c(CCNC(=O)c2cccs2)nnc1SCC(=O)Nc1ccc(Cl)cc1 | 6
CC(C)c1cccc(C(C)C)c1NC(=S)Nc1cccc(Cl)c1 | 22
O=C(Nc1cccc2ccccc12)C1CCN(C(=O)Cc2ccccc2)CC1 | 13
CCC1=C(OC(=O)N(CC)CC)N2C(=O)OC(=NCCOC)[C@]2(Cc2ccccc2)[C@H]2C1=CC[C@H]1C(=O)N(C)C(=O)[C@H]12 | 0
COc1ccc(OC)c(NC(=O)C2CCN(C(=O)c3cccs3)CC2)c1 | 7
COc1cccc(CNS(=O)(=O)c2ccc(S(=O)(=O)N3CCCC3)cc2)c1 | 17
Cc1cc(C(F)F)nn1CC(=O)N1CCSCC1 | 10
CCOc1ccccc1N(CC(=O)Nc1cccnc1)S(=O)(=O)c1ccc(C)cc1 | 16
O=C(Nc1cc([N+](=O)[O-])ccc1N1CCCC1)c1ccco1 | 10
CC(C)(C)C(=O)OCCNc1nc(-c2ccccc2)nc2ccccc12 | 11
CCOc1ccc(CCNC(=O)COC(=O)c2cccc(OC)c2O)cc1OCC | 10
CC(=O)N1N=C(c2cccs2)CC1c1cc2cc(C)ccc2nc1Cl (centres undefined) | 15
Cc1cc(Cl)c(OCCCCN2CCOCC2)c(Br)c1 | 14
Cc1nc(Nc2nc(CSc3nc4ccccc4[nH]3)cc(=O)[nH]2)nc2ccccc12 | 11
Cc1nc(Nc2ccc(C(=O)O)cc2)nc(Nc2ccc(C(=O)O)cc2)c1[N+](=O)[O-] | 16
COc1cc(S(=O)(=O)N(Cc2cccnc2)Cc2cccc(OC)c2OC)ccc1-n1cnnn1 | 26
Cc1ccc(C)c(NC(=O)CSc2c(C)n[nH]c2C)c1 | 9
O=C(COc1ccccc1)Nc1cccc(-c2nc3ccccc3[nH]2)c1 | 11
c1cc(-c2nsc(-c3ccncc3)n2)ccn1 | 10
COC(=O)C1=CN(C(C)C)C=C(C(=O)OC)C1c1cc(Br)c(OC)c(OC)c1 | 2
S=C(NCCc1ccccc1)Nc1cnc2ccccc2c1 | 8
Cc1nc(-c2nc(CC(=O)NNC(=O)c3ccc(Cl)cc3)cs2)cs1 | 7

Not all compounds are listed, so the mix of outcomes need not match the whole.
